Vaccinia Venus = vaccinia inhibition (Venus reporter); Vaccinia virus Venus reporter expression, fluorescence; Potency, µM (doses to about 36.5 µM), for the others: at the highest dose activity change, negative = inhibition, usual class: inhibitors; 330,000 compounds, 0.46% hits; active means well fitted inhibition curve with a large enough effect; inconclusive means small, poorly fitted or top-dose-only effect; inactive means no such curve, though single readings can be large or run the other way; tested in A549 cells; further: nearly all actives have a fitted effect of over 30% in size; inactives centre near -10
VACV mCherry inh = vaccinia inhibition (mCherry reporter) | 310,000 compounds, 0.63% hits | Potency, µM (titrated, usually from 36.5 µM), without a hit: at the highest dose activity change, negative = inhibition, most hits filed as inhibitors | AID 720579 | Vaccinia virus mCherry reporter infection, fluorescence; about a quarter of the inactives have no number; active = well fitted inhibition curve with a large enough effect; inconclusive = small, poorly fitted or top-dose-only effect; inactive = no such curve, though single readings can be large or run the other way; tested in A549 cells; further: nearly all actives have a fitted effect of over 35% in size; inactives centre near -10
Active calls of the source: *; i = inactive; u = inconclusive; x = not tested or not shown; & = joins results of further samples; ! = repeats disagree; [ ] = dose if it differs, or a comment. On the % scale 0 is the no-effect control and ±100 the full control effect; potency means the concentration at half of the fitted maximal effect.

SMILES | Vaccinia Venus | VACV mCherry inh
CCOc1ccc(CN2CCN(c3ncnc4sc5c(c34)CC(C)CC5)CC2)cc1 (configuration not stated) | -1% | -14%
COc1ccccc1-c1cc(C(F)(F)F)nc(S(=O)(=O)CCCC(=O)Nc2cc(C)on2)n1 | u | -23%
Cc1ccc(-c2cnc(C(O)c3cc(Cl)cc(Cl)c3)[nH]2)cc1 (configuration not stated) | -4% | u
O=C(NCCC1CCCCN1S(=O)(=O)c1ccccc1)C(=O)NCc1ccc(F)cc1 (configuration not stated) | 2% | -25%
COc1ccc2c(c1)sc1nc(=O)ccn12 | -9% | -20%
Cc1nn(-c2ccccc2)c(Cl)c1/C=N/NC(=O)c1cccc(S(=O)(=O)N2CCCC2)c1 | -6% | -7%
COc1ccc(Br)cc1CNC(=O)C1CCN(c2nnc(N3CCCC3=O)s2)CC1 | -20% | -14%
CCOC(=O)CSc1nc(C)c2ccccc2n1 | -4% | -22%[1.46 µM]
COC(=O)c1ccc(CS(=O)(=O)c2ccccc2C)o1 | -11% | -14%
CC(C)c1ccc(/C=C/C(=O)CCC(=O)O)cc1 | -27% | u
CCCOc1ccc(-c2nonc2NC(=O)c2oc3ccc(Cl)cc3c2C)cc1OCCC | u | u
CCC(C)(C)NC(=O)C1CCCN1C(=O)NC1CCCCC1 (configuration not stated) | -1% | 2%
CCn1nnnc1SCC(=O)Nc1cccc(C)n1 | -13% | i
C=CCN(C(=O)COc1ccccc1)c1nnc(-c2ccncc2)s1 | -9% | -16%
CC(C)CN(CCCNC(=O)CN1C(=O)CSc2ccc(S(=O)(=O)N3CCOCC3)cc21)CC(C)C | -10% | -5%
COc1cccc(C2C3CN(C)CC=C3C(C#N)=C(N)C2(C#N)C#N)c1OC (configuration not stated) | 7% | -10%
CC1CCCCN1C(=O)c1c(Cl)cnn1C (configuration not stated) | 2% | i
O=C(O)c1ccccc1NC(=O)C1CCCO1 (configuration not stated) | -6% | -1%
COc1ccccc1NC(=O)c1cc(Cl)ccc1NC(=O)c1ccco1 | -20% | -25%
O=C1Cc2cc(NS(=O)(=O)c3cc(F)ccc3F)cc3c2N1CCC3 | 0% | -2%
Cc1cccc(CCNC(=O)CCNC(=O)Cn2ccc3ccccc3c2=O)c1 | -7% | -12%
CCNC(=S)N1CCC(NC(=O)c2ccco2)CC1 | 1% | -2%
Cn1c(-c2ccc(F)cc2)cc2onc(-c3ccccc3Cl)c2c1=O | -3% | i
C=C(C)C(=O)Nc1cccc(C2=NOC3(C2)C[C@@H](C(N)=O)N(C(=O)c2cc([N+](=O)[O-])cc([N+](=O)[O-])c2)C3)c1 (some centres not stated) | -10% | -16%
N=c1ccn(CC(=O)NC(N)=O)c2ccccc12 | 4% | -6%
Cc1cccc(Cn2cccc2/C=C2/C(=N)N3C=CSC3=NC2=O)c1 | -13% | -14%
CN(Cc1cccc2ncccc12)C(=O)c1cnn(-c2nccc(-c3ccccc3F)n2)c1C1CC1 | u | 5.6µM*
Cc1cccc(NC(=O)COC(=O)COc2ccc3c(c2)CCC3)c1 | -1% | -18%
CCOC(=O)N1CCN(C(=O)CS(=O)(=O)c2cn(Cc3ccc(F)cc3)c3ccccc23)CC1 | -14% | i
COc1cccc(N2CC(O)=C(c3ccccc3)C2=N)c1 | -15% | -8%

In another format: entries from further up.
Results follow in this order: Vaccinia Venus, VACV mCherry inh
- CCNC(=S)N1CCC(NC(=O)c2ccco2)CC1
  1%, -2%
- Cn1c(-c2ccc(F)cc2)cc2onc(-c3ccccc3Cl)c2c1=O
  -3%, i
- C=C(C)C(=O)Nc1cccc(C2=NOC3(C2)C[C@@H](C(N)=O)N(C(=O)c2cc([N+](=O)[O-])cc([N+](=O)[O-])c2)C3)c1 (some centres not stated)
  -10%, -16%
- N=c1ccn(CC(=O)NC(N)=O)c2ccccc12
  4%, -6%
- Cc1cccc(Cn2cccc2/C=C2/C(=N)N3C=CSC3=NC2=O)c1
  -13%, -14%
- CN(Cc1cccc2ncccc12)C(=O)c1cnn(-c2nccc(-c3ccccc3F)n2)c1C1CC1
  u, 5.6µM*
- Cc1cccc(NC(=O)COC(=O)COc2ccc3c(c2)CCC3)c1
  -1%, -18%

An excerpt from above in order of length of the SMILES, high to low:
SMILES | Vaccinia Venus | VACV mCherry inh
C=C(C)C(=O)Nc1cccc(C2=NOC3(C2)C[C@@H](C(N)=O)N(C(=O)c2cc([N+](=O)[O-])cc([N+](=O)[O-])c2)C3)c1 (some centres not stated) | -10% | -16%
COc1cccc(N2CC(O)=C(c3ccccc3)C2=N)c1 | -15% | -8%
CCNC(=S)N1CCC(NC(=O)c2ccco2)CC1 | 1% | -2%

More structures:
SMILES | Vaccinia Venus | VACV mCherry inh
O=C(Nc1ccc(S(=O)(=O)Nc2nccs2)cc1)c1ccc(S(=O)(=O)N2CCOCC2)cc1 | -5% | -4%
CSc1nncc(/C(C)=N/O)n1 | -12% | i
CCOc1ccc(C2CC(=O)n3nc(-c4ccc(C)cc4)nc3S2)cc1OC (configuration not stated) | 3% | -8%
COC(=O)c1[nH]c2ccc(Cl)cc2c1NC(=O)C1CC1 | -11% | -15%
Cc1nn(Cc2ccccc2)c(C)c1C(=O)NCc1ccccc1 | 8% | -7%
CC(=O)c1ccc(S(=O)(=O)N2CCN(C(=O)c3ccc(N)c([N+](=O)[O-])c3)CC2)cc1 | -7% | -17%
CCCCNC(=O)Nc1ccc(Br)cn1 | u | x
COCCNC(=O)C(c1ccc(F)cc1)N(C(=O)CCC(=O)Nc1ccccn1)C1CCCCC1 (configuration not stated) | -5% | i
Cc1ccc2nc(-c3ccc(Cl)cc3)c(Cc3ccccn3)n2c1 | -7% | -12%
O=C(CC1C(=O)OCN1C(=O)OCc1ccccc1)OCC(=O)c1ccccc1 (configuration not stated) | -3% | x
COCc1c(C(=O)N2CCN(c3ccc(C(F)(F)F)cn3)CC2)oc2ccccc12 | -12% | x
COc1ccccc1CNC(=O)CC12CC3CC(CC(Br)(C3)C1)C2 | 14% | 9%
CCCCSP(=O)(SCCCC)SCCCC | -1% | -7%
Nc1c(C(=O)NCc2ccc3c(c2)OCO3)nnn1CC(=O)Nc1ccc(Br)cc1 | -15% | -5%
CCC(=O)c1ccc(OCC(=O)OCC(=O)NCC2CCCCC2)cc1 | -2% | -8%
Cc1ccc([N+](=O)[O-])c(OCC(=O)OCC(=O)c2ccccc2)c1 | -5% | -3%
NCC1CCC(C(=O)Oc2ccc(CCC(=O)O)cc2)CC1 (configuration not stated) | -6% | -14%
CN(C)S(=O)(=O)c1cccc(C(=O)N2CCC(C(=O)O)(c3ccccc3)CC2)c1 | -14% | -6%
CCCCCN1C(=O)c2cc(OC)ccc2[C@@]2(C(=O)OCC)Cc3cc(Cl)ccc3[C@@H]12 | u | u
O=C(CSc1nc2c(c(=O)[nH]1)CCCC2)Nc1ccccc1C(F)(F)F | 10% | 5%
O=C(c1cc(-c2ccncc2)nc2ccc(Cl)cc12)N1CCN(Cc2ccc3c(c2)OCO3)CC1 | -16% | -12%
CCCN1C(=O)c2[nH]nc(-c3ccccc3O)c2C1c1ccc(OCc2ccccc2)c(OC)c1 (configuration not stated) | -26% | u
CCC(C)(C)NC(=O)c1ccc(S(=O)(=O)N(C)c2ccccc2OC)cc1 | 4% | -1%
Nc1c(C(=O)NCCN2CCOCC2)c2nc3ccccc3nc2n1CCc1ccccc1 | u | u
CC(C)c1nc2oc3c(=O)[nH]cnc3c2c2c1CCC2 | -7% | -7%
CCOC(=O)c1cnc2ccc(C)cc2c1NCCO | -8% | x
CCC(=O)N1N=C(c2ccc(NS(=O)(=O)CC)cc2)CC1c1ccc(C)cc1 (configuration not stated) | -12% | i
Cc1ccc(N(CC(=O)NC2CCCC2)C(=O)CNC(=O)c2cccs2)cc1F | -1% | -8%
O=C(CN(c1ccccc1)S(=O)(=O)c1ccccc1)NCCSc1ccccn1 | 3% | 5%
Nc1nc(-c2ccccc2)nn1C(=O)c1ccco1 | 0% | i
COc1ccc(Cl)cc1NC(=O)CCN1CCN(C)CC1 | -7% | x
CN(C)CCCNC(=O)C(=O)NCC(c1ccc2c(c1)OCO2)N1CCOCC1 (configuration not stated) | 3% | -1%
FC(F)(F)c1cccc(-c2ccc(/C=N/Nc3nncc(-c4ccccc4)n3)o2)c1 | -13% | i
COc1ccc(NC(=O)CCCNC(=O)Cn2cnc3sc4c(c3c2=O)CCCC4)cc1OC | -11% | -14%
Cc1cc(C)cc(NS(=O)(=O)Cc2ccccc2)c1 | -5% | -13%
Cc1cccc(C(=O)NNC(=O)c2cccc(C)c2)c1 | -1% | i
CCOC(=O)C1CCN(C(=O)COc2ccc3c(c2)OCO3)CC1 | 1% | -21%
COC(=O)c1scc(-c2ccc(C)cc2)c1S(=O)(=O)Nc1cccc(Cl)c1C | 4% | -12%
CCN1CCN(Cc2ccc(NC(=O)c3cc(NC(=O)c4cc5cccc(OC)c5o4)cc(OC)c3)cc2C(F)(F)F)CC1 | 13µM*! | u
Cn1c(SCc2nnc(-c3ccccc3Br)o2)nc2sc3c(c2c1=O)CCC3 | -11% | i
Cc1ccc(S(=O)(=O)NCC2CCC(C(=O)NCCc3ccc(Cl)cc3)CC2)cc1 (configuration not stated) | 4% | 0%
CCOC(=O)C1=CNS(=O)(=O)NC1CCc1ccccc1 (configuration not stated) | 0% | i
CCOc1ccc(S(=O)(=O)NCCC(=O)N2CC(C)OC(C)C2)cc1 (configuration not stated) | -3% | -11%
COCc1ccc(CN2CCOc3c(cc(-c4ccc(SC)cc4)cc3OC)C2)o1 | 1% | -8%
COc1ccc2nc(C)cc(Nc3ccc(C)cc3)c2c1 | -12% | u
COc1ccc(CN=Cc2c(C(=O)O)[nH]c3ccccc23)cc1 | -6% | -7%
COCc1cn(CC[C@@H]2CC[C@@H](NC(=O)Nc3ccc4c(c3)OCO4)[C@@H](CO)O2)nn1 | 1% | -6%
Cc1ccc(NC(=O)C(C)OC(=O)c2cc(=O)[nH]c3ccccc23)cc1S(=O)(=O)N1CCOCC1 (configuration not stated) | -14% | -3%
CC1(C(=O)CSc2nc3ccccc3[nH]2)CCC(=O)O1 (configuration not stated) | -21% | x
Cn1cnnc1SCC(=O)c1ccc2c(c1)CCCC2 | -3% | i

(next part)
SMILES | Vaccinia Venus | VACV mCherry inh
Cc1nc(N2C(=O)c3oc4ccccc4c(=O)c3C2c2ccccc2F)sc1C (configuration not stated) | 1% | -9%
O=C(N/N=C(\c1ccccc1)c1cccnc1)c1ccc(O)cc1 | -17% | i
C/C=C1/CC(C)C(C)(O)C(=O)OCC2CCN3CCC(OC1=O)C23 (configuration not stated) | 6% | i
COc1ccc(S(=O)(=O)N(C)C[C@H]2Oc3ccc(NS(=O)(=O)c4cn(C)cn4)cc3C(=O)N([C@H](C)CO)C[C@@H]2C)cc1 | -9% | -26%
Cc1cccc(-c2nc3cc(NC(=O)c4ccc(OCC(C)C)cc4)ccc3o2)c1 | -7% | -11%
CCOc1ccc(N2CC(C(=O)NC3CCSC3=O)CC2=O)cc1 (configuration not stated) | -2% | 57%[activator]
CCC(Oc1ccccc1)C(=O)Nc1ccc(OCc2cc(=O)n3ccccc3n2)cc1 (configuration not stated) | -18% | -4%
CCOC(=O)[C@H]1[C@H]2COc3ccccc3[C@@H]2N2C(=O)c3ccccc3NC(=O)[C@@]12C | -4% | i
O=C(O)CCc1ccc(-c2cccs2)n1NC(=O)c1ccc(O)cc1 | -10% | -12%
Cc1c2c(nc3ccccc13)OCC2 | -10% | i
O=S(=O)(Nc1cccc(S(=O)(=O)N2CCCC2)c1)c1ccccc1F | -10% | -1%
O=C(CCCN1CCN(c2ccccn2)CC1)c1ccc(F)cc1 | -19%&-9% | -1%&-4%
O=C(Cc1cc(=O)[nH][nH]1)N/N=C/c1ccccc1Cl | -12% | i
Cc1ccc(Cc2c(-c3ccc(Cl)cc3)nc3c(Cl)cc(C(F)(F)F)cn23)cc1 | 4% | 20%
O=C(CNS(=O)(=O)c1ccc2ccccc2c1)NCCc1ccccn1 | -2% | i
c1ccc(CNc2ncnc3nc[nH]c23)cc1 | -23%&-15%&-16% | -7%&-12%&-4%
O=C(COC(=O)c1ccccc1)Nc1ncc([N+](=O)[O-])s1 | -14% | -16%
O=C(CSc1nnc(-c2ccc(Cl)cc2)o1)Nc1ccc(F)cc1 | 0% | -4%
CCCn1c(N)c(C(=O)COC(=O)CCS(=O)(=O)c2ccc(C)cc2)c(=O)[nH]c1=O | -14% | -15%
COc1ccc(S(=O)(=O)NN(C)c2nc(C(F)(F)F)nc3ccccc23)cc1 | -13% | i
O=C1N[C@@H](Cc2cnc[nH]2)C(=O)N2CCC[C@@H]12 | -18% | -1%
COc1ccc(NC(=O)N2CCOc3ccc(Cl)cc32)cc1 | -11% | -4%
CC(C)=CNNC(=O)c1ccc(O)cc1 | -14% | -3%
CCc1ccccc1NC(=O)CN1C(=O)c2ccccc2S1(=O)=O | -13% | i
COc1ccc(-c2oc3ncn4nc(-c5cccc(C)c5)nc4c3c2-c2ccc(OC)cc2)cc1 | 0% | -4%
COC(=O)C[C@H]1CC[C@@H](NC(=O)C2CC2)[C@@H](CO)O1 | 2% | -14%
Cc1cccc(N2CCN(C(=O)c3cccc(S(=O)(=O)N4CCOCC4)c3)CC2)c1C | -13% | i
O=C(O)c1ccc(C(=O)c2ccc3c(c2)C(=O)N(CCO)C3=O)cc1 | 1% | 2%
CCOc1ccc(-c2nnc3ccc(SC(C)C)nn23)cc1 | u | u
CC(=O)O[C@H]1C(=O)[C@@]2(C)[C@H]([C@H](OC(=O)c3ccccc3)[C@]3(O)C[C@H](OC(=O)[C@H](O)[C@@H](NC(=O)c4ccccc4)c4ccccc4)C(C)=C1C3(C)C)[C@]1(OC(C)=O)CO[C@@H]1C[C@@H]2O | u | u
O=S(=O)(NN=C(c1ccccc1)c1ccccc1)c1ccccc1 | -7% | i
